Screening data: PubChem BioAssay, several laboratories
E coli growth – inhibitors of Escherichia coli growth | OD600, 23 h; stronger effect = lower value | OD600 absorbance (no concentration beside the values) | 330,000 tested, 0.21% active | AID 1053175;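 active means OD600 absorbance below the run mean of sample wells minus 3.6 SD, in any replicate, cut at about 0.56 in these data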;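 further: stock transfer was 300 nL into about 60 µL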
Vif TR-FRET – HIV-1 Vif–A3G interaction blockers – biochemical, TR-FRET, GST-Vif 1-94, biotin-A3G peptide, dose response retest, primary screen (AID 1117319) | TR-FRET GST-Vif / biotin-A3G peptide binding; higher % means a stronger effect; test concentration not given here; strong numbers were not always called active | 260,000 tested, 0.57% active | one-dose inhibition, %; IC50 in µM for titrated hits;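 active means above the screen mean plus three standard deviations and confirmed in dose response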;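 further: Vif residues 1-94 fused to GST binding biotinylated APOBEC3G peptide 110-148; 0% = full assay without inhibitor and 100% = GST in place of GST-Vif; retest series ran down from 100 µM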
AF4-AF9 inh – blocks AF4 peptide binding to human AF9. P42568. AlphaScreen, biotin-AF4 peptide binding to FLAG-AF9. inhibition, % at 10 µM. 350,000 tested, 0.47% active. AID 651704;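 active means every replicate reaching a set inhibition limit, whatever the replicate mean, cut at about 25% in these data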;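 further: 0% = plate neutral control median and 100% = total signal loss; the record names both 10 and 1 µM as test concentration; the first replicate is given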
HNF4A DNA FP – change in binding of human HNF4 alpha to DNA; 360,000 tested, 0.3% active; P41235; activity change, % at 10 µM; HNF4a-FITC DNA binding, fluorescence polarization, 1 h; AID 1224865; in the data active means activity change above about 30%, passing the limit was not always enough;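 further: controls were the assay level and a saturating level of protein; the project sought stronger binding though the title names inhibitors; some compounds called inactive have numbers as strong as hits; positive values seem to mean higher polarization but the record does not say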
Target sequence (P41235 whole entry, looked up): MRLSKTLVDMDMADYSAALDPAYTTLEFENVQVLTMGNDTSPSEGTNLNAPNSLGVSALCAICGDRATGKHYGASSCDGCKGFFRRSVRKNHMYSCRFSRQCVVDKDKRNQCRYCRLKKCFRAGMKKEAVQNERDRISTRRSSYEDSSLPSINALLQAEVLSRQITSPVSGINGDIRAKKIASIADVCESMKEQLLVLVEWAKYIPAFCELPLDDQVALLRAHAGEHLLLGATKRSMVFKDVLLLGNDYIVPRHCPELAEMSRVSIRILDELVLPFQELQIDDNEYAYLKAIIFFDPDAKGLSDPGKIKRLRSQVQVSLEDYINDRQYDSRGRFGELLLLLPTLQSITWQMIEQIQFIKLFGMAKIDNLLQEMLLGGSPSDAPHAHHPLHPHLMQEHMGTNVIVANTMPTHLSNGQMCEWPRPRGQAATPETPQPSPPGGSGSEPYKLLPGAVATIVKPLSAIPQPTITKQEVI
ALR H2O2 inh – blocks human ALR sulfhydryl oxidase activity; P55789; purified ALR, DTT oxidation, H2O2 HRP-luminol luminescence; inhibition, % (concentration not given with the values); 290,000 tested, 3.8% active; AID 485317;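 active means mean and each replicate at 75% or more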;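 further: stock transfer was 7.5 nL into about 7.5 µL; 0% = neutral wells and 100% = wells with inactivated enzyme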
Target sequence (P55789 whole entry, looked up): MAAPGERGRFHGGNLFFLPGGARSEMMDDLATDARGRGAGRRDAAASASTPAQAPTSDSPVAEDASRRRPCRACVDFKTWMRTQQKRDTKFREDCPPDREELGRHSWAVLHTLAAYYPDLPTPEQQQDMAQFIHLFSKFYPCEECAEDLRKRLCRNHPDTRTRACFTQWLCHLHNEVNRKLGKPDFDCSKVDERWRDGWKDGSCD
FGF22 binding – shifts melting point of recombinant human FGF22. recombinant FGF22 thermal shift, SYPRO orange fluorescence; percent of sucrose octasulfate shift, DMSO zero. 340,000 tested, 1.5% active. Q9HCT0. calls only at 9.99 µM;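 active means melting point raised past a set limit in the mean and every replicate; three in four hits are not shown here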
Target sequence (Q9HCT0 whole entry, looked up): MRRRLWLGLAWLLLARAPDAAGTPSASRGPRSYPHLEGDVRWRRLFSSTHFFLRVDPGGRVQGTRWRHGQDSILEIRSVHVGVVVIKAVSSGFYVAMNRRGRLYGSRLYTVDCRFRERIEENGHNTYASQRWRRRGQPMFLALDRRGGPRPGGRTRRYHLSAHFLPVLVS
rRNA inh HTS – inhibits bacterial ribosomal RNA function over humanized ribosomes; GFP signal change (wild-type ribosome), % (no concentration beside the values); E. coli WT GFP vs humanized-ribosome RFP mutants, fluorescence, 24 h; stronger effect = lower value; DMSO median 0, no signal -100; 350,000 tested, 1.6% active;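 active means significant combined selectivity score with lowered wild-type GFP, culture density cut under 30%, mutant RFP and density less affected; inactive means any of these conditions unmet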; further: one replicate is shown; some compounds called inactive have numbers as strong as hits
rRNA inh HTS OD600 – also measured in rRNA inh HTS; calls as there; OD600 change, %; measured here: OD600 growth;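 optical density of the mix in the first replicate; 0 = DMSO median and -100 = no signal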
rRNA inh HTS RFP – also measured in rRNA inh HTS; calls as there; RFP signal change, %; measured here: RFP humanized mutant strains;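 first replicate; 0 = DMSO median and -100 = no signal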
* hit, by the source's call; i = inactive; · = not tested or not shown. An excerpt, so the mix of outcomes need not match the whole.

SMILES | E coli growth | Vif TR-FRET | AF4-AF9 inh | HNF4A DNA FP | ALR H2O2 inh | FGF22 binding | rRNA inh HTS | rRNA inh HTS OD600 | rRNA inh HTS RFP
On1nnc2cc(C(F)(F)F)ccc21 | 0.7 | -6% | 0.0 | 1.9 | -9 | i | 5 | -4 | 1.5
Cc1cc(C)c(C)c(S(=O)(=O)N2CCN(CC(=O)Nc3ccc([N+](=O)[O-])cc3)CC2)c1C | 0.72 | 0% | · | 3.2 | 1 | · | · | · | ·
Cc1ccc(-c2ccc3c(c2)O[C@H](CN(C)C(=O)Nc2ccc(F)cc2)[C@H](C)CN([C@H](C)CO)S3(=O)=O)cc1 | · | · | 1.0 | · | · | i | -3 | -5 | 0.2
CCOc1cc(NC(=S)NCC2CCCO2)c(OCC)cc1NC(=O)c1ccc(C)cc1 (centres undefined) | 0.69 | 1% | · | -1.1 | · | · | · | · | ·
CCOC(=O)CCP(=O)(O)C(O)c1ccccc1 (centres undefined) | 0.74 | -5% | · | 1.8 | 1 | · | · | · | ·
COc1ccc(-c2nc(CN3CCN(c4ncccn4)CC3)c(C)o2)cc1C | 0.7 | 27% | 5.5 | 1.8 | -4 | i | -29 | -35 | -3.4
COc1cccc(OCC(=O)Nc2ccncc2)c1 | 0.71 | · | -1.3 | 1.0 | -5 | i | 3 | 6 | -1.1
CC1=CCC2C(=O)N(c3ccc(S(N)(=O)=O)cc3)C(=O)C2C1 (centres undefined) | 0.68 | -1% | -0.8 | -0.5 | 5 | i | 6 | 6 | 1.1
CCC(=O)N(C)C[C@H]1Oc2ncc(-c3ccc(C#N)cc3)cc2C(=O)N([C@@H](C)CO)C[C@@H]1C | · | · | -2.1 | · | · | i | -3 | 2 | -1.7
COCCNc1nc2nonc2nc1N(C)Cc1cccc2cnccc12 | 0.69 | 0% | 0.3 | 2.3 | -7 | · | 4 | 0 | -1.1
O=C(CNC(=O)Cc1ccccc1)NCC(=O)N1CCCCC1 | 0.71 | -8% | -1.9 | -5.8 | -1 | i | 3 | 11 | 3.1
Cc1ccc2c(c1)/C(=C/c1ccc(F)cc1)C(=O)N2 | 0.63 | 0% | -2.3 | -2.6 | 3 | i | -25 | -32 | -3.5
COc1ccc(OCC(=O)NNc2nc3ccccc3s2)cc1 | 0.64 | -3% | 3.0 | -1.4 | 61 | i | · | · | ·
COc1ccc(-c2nc3ccccc3c(=O)n2-c2c(C)n(C)n(-c3ccccc3)c2=O)cc1 | 0.7 | -3% | 1.5 | 8.6 | -9 | i | -2 | -6 | 1.7
COc1cccc(C#Cc2ccc3c(c2)O[C@@H](CN(C)C)[C@@H](C)CN([C@@H](C)CO)S3(=O)=O)c1 | · | · | 11 | · | · | i | 0 | -5 | 17
COc1ccc(CNC(=O)C[C@@H]2C=C[C@@H](NC(=O)CN(C)C)[C@@H](CO)O2)cc1 | · | · | 0.0 | · | · | i | -1 | -9 | -0.7
CC(C)C(NC(=O)c1ccc(F)cc1)C(=O)N1CCOCC1 (centres undefined) | 0.68 | -2% | -3.8 | 4.3 | · | i | 2 | 8 | -1.1
Cc1ccc(CCNC(=O)C2CCN(S(=O)(=O)c3ccc4c(c3)NC(=O)CO4)CC2)cc1 | · | · | -2.4 | 3.5 | -4 | i | 11 | 16 | 1.8
CN(C)c1ccc(C(=O)N2CCNC(=O)C2CC(=O)Nc2ccc(F)cc2)cc1 (centres undefined) | 0.72 | · | -0.4 | -0.8 | 8 | i | 3 | 4 | -2.9
O=C(COC(=O)Cc1ccc(Br)cc1)NC1CCCCCC1 | 0.67 | 1% | -1.7 | -8.3 | 10 | i | -20 | -32 | -3.1
CCOCCn1c(CN2CCN(c3ccc(F)cc3)CC2)nc2c1c(=O)n(C)c(=O)n2C | 0.68 | 7% | · | 1.0 | 99* | · | · | · | ·
CCOC(=O)[C@H]1[C@H]2COc3ccc(OC)cc3[C@@H]2N2C(=O)c3cc(OC)ccc3NC(=O)[C@@]12C | · | · | 3.3 | 1.9 | · | i | -2 | -23 | 4.2
CCC1(CC)NC(=O)N(CC(=O)OC(C)C(=O)Nc2ccc(S(N)(=O)=O)cc2)C1=O (centres undefined) | · | · | -6.2 | -1.1 | · | i | 3 | 26 | 0.2
Cc1nnc(SCc2cc(=O)[nH]c(=S)[nH]2)s1 | 0.69 | · | 8.2 | 3.6 | 5 | i | 2 | 0 | -2.1
CN(Cc1ccc(OC(F)F)cc1)C(=O)/C=C/c1ccc(S(=O)(=O)N2CCOCC2)cc1 | 0.71 | · | 1.8 | 1.4 | · | i | -8 | -12 | 0.7

Next entries
SMILES | E coli growth | Vif TR-FRET | AF4-AF9 inh | HNF4A DNA FP | ALR H2O2 inh | FGF22 binding | rRNA inh HTS | rRNA inh HTS OD600 | rRNA inh HTS RFP
CCc1noc(C)c1C(=O)N(C)CC(=O)Nc1ccc(OC)cc1 | 0.68 | 0% | -0.6 | -2.3 | -9 | i | 4 | -1 | -3.3
COc1cc(/C=C2\SC(=O)N(CCNC(=O)c3c(C)noc3C)C2=O)cc(OC)c1OC | 0.66 | -6% | -0.4 | 5.5 | -4 | i | 3 | 24 | 2.4
COc1cccc(/C=C2\NC(=O)NC2=O)c1O | 0.68 | 4% | -1.3 | 4.2 | 71 | i | -1 | 12 | 12
Cc1nnc(C)c2c(C)n(C(C)c3ccccc3)c(C)c12 (centres undefined) | 0.7 | 14% | · | 7.3 | -39 | · | · | · | ·
C/C=C/c1ccc2c(c1)O[C@H](CN(C)C(=O)Nc1cccc(F)c1)[C@@H](C)CN([C@@H](C)CO)S2(=O)=O | · | · | 4.1 | · | · | i | -5 | -24 | -0.3
COc1cc(S(=O)(=O)N2CCOCC2)ccc1N | 0.69 | 20% | -0.6 | 0.5 | -2 | i | 12 | 20 | -1.0
CO[C@@H]1CN(C)C(=O)c2ccc(NS(=O)(=O)c3ccccc3)cc2OC[C@H](C)N(Cc2cccnc2)C[C@@H]1C | · | · | -6.3 | · | · | i | -1 | 8 | 3.1
Cc1ccc(S(=O)(=O)N(C)C[C@H]2Oc3c(NC(=O)C4CCCCC4)cccc3C(=O)N([C@H](C)CO)C[C@@H]2C)cc1 | · | · | 3.7 | · | · | i | 0 | 2 | 3.3
COc1ccc(C(=O)CC(=O)c2ccc(C)cc2)c(O)c1 | 0.69 | · | 0.5 | -11 | 2 | i | -49 | -75 | -25
O=C(Nc1ccccc1F)c1nc[nH]c1C(=O)NCc1ccccc1 | · | · | -0.6 | -0.2 | · | i | -26 | -74 | -22
CCOC(=O)C(=CNc1ccc(Cl)cn1)C(=O)OCC | 0.68 | -11% | -7.0 | -3.5 | 17 | i | 19 | 10 | 8.2
O=C(Nc1ccccc1)Nc1nnc(Cc2ccccc2F)s1 | 0.63 | -3% | -4.9 | 0.1 | -1 | i | 3 | 8 | -2.6
C[C@H]1CN([C@@H](C)CO)S(=O)(=O)c2ccc(-c3cccnc3)cc2O[C@H]1CN(C)C(=O)C1CCC1 | · | · | 0.5 | · | · | i | -2 | -4 | 0.2
Cc1ccc(S(=O)(=O)N[C@@H]2CC[C@@H](CC(=O)NCCN3CCCCC3)O[C@H]2CO)cc1 | · | · | -0.4 | · | · | i | 1 | 0 | -1.3
Cc1nn(C(C)C)c(C)c1CN1CCC(C(=O)Nc2cccc(-c3cccc(F)c3)c2)CC1 | 0.68 | · | 9.6 | 6.0 | 5 | i | -27 | -35 | 7.9
Cc1ccc(S(=O)(=O)Nc2ccccc2CNc2ccccn2)cc1 | 0.72 | 1% | 3.9 | 1.7 | 5 | i | -28* | -13* | -1.1*
CCOC(=O)CCNC(=O)N1CCCC(C(=O)c2ccccc2SC)C1 (centres undefined) | 0.64 | 9% | -11 | 3.5 | -4 | i | 8 | -4 | -6.6
C=CCn1cc(-c2ccccc2)cc(C#N)c1=O | 0.77 | 76% | · | 4.2 | -38 | · | · | · | ·
CCOc1ccc2nc(NC(=O)CCC(=O)c3cccs3)sc2c1 | 0.72 | 10% | · | 1.1 | -9 | · | · | · | ·
CCCN(CCC)S(=O)(=O)c1ccc(C(=O)NCc2n[nH]c(=S)n2-c2ccc(Cl)c(Cl)c2)cc1 | 0.73 | 4% | -2.2 | 0.4 | 48 | i | -9 | -19 | 1.4
CN(NC(=O)c1cccc(Cl)c1)c1nc(-c2ccccc2)nnc1C(F)(F)F | 0.8 | 1% | · | -0.9 | · | · | · | · | ·
Cc1ccc2c(c1)C(c1ccccc1)N(C(=O)c1ccc(F)cc1)CC(=O)N2 (centres undefined) | 0.65 | · | -1.6 | 3.5 | -14 | i | -4 | -15 | -3.6
CCS(=O)(=O)N1Cc2ccccc2CC1C(=O)Nc1ccc(F)cc1 (centres undefined) | 0.72 | · | 5.0 | 1.7 | 4 | i | -1 | -2 | -9.1
Cc1ccc(CN(C)C[C@H]2OCc3cn(nn3)CCCC(=O)N([C@@H](C)CO)C[C@@H]2C)cc1 | · | · | -0.9 | · | · | i | 0 | 4 | -0.9
COCC#Cc1cnc2c(c1)C(=O)N([C@@H](C)CO)C[C@H](C)[C@@H](CN(C)C(=O)C1CCC1)O2 | · | · | -5.2 | · | · | i | 2 | 7 | -1.6

2 entries from above, with values under each structure:
Screens in order – E coli growth | Vif TR-FRET | AF4-AF9 inh | HNF4A DNA FP | ALR H2O2 inh | FGF22 binding | rRNA inh HTS | rRNA inh HTS OD600 | rRNA inh HTS RFP
- C/C=C/c1ccc2c(c1)O[C@H](CN(C)C(=O)Nc1cccc(F)c1)[C@@H](C)CN([C@@H](C)CO)S2(=O)=O
    · | · | 4.1 | · | · | i | -5 | -24 | -0.3
- COc1cc(S(=O)(=O)N2CCOCC2)ccc1N
    0.69 | 20% | -0.6 | 0.5 | -2 | i | 12 | 20 | -1.0

(listing goes on)
SMILES | E coli growth | Vif TR-FRET | AF4-AF9 inh | HNF4A DNA FP | ALR H2O2 inh | FGF22 binding | rRNA inh HTS | rRNA inh HTS OD600 | rRNA inh HTS RFP
COc1cccc(-n2c(SCc3ccccn3)nc3c(c2=O)SCC3)c1 | 0.7 | -4% | 3.6 | 1.7 | 3 | i | 14 | -1 | 6.6
CCNC(=O)[C@@H]1[C@@H](CO)[C@@H]2Cn3c(ccc(-c4ccccc4)c3=O)[C@@H]2N1C(=O)C1CCC1 | · | · | -3.2 | · | · | i | 0 | 7 | -5.7
O=C1/C(=C/c2ccc(O)c([N+](=O)[O-])c2)SC(=S)N1Cc1ccccc1 | · | · | 2.4 | 29 | 0 | i | 6 | 6 | 1.9
S=C(c1ccc(-c2ccccc2)cc1)N1CCOCC1 | 0.72 | -15% | 0.0 | 3.3 | -12 | i | -23 | -22 | -1.1
CC(Oc1ccc(F)cc1)C(=O)N(Cc1ccccc1)c1c(N)n(Cc2ccccc2)c(=O)[nH]c1=O (centres undefined) | 0.68 | 3% | -11 | -1.3 | 1 | i | 5 | 2 | 1.6
COCC(=O)Nc1ccc2c(c1)OC[C@H](C)N(Cc1ccccc1OC)C[C@H](C)[C@@H](OC)CN(C)C2=O | · | · | -0.5 | · | · | i | 1 | -1 | -0.2
CCN(CC)C(=O)CSc1nnc2cc(C)c3ccccc3n12 | 0.73 | -1% | -2.2 | -1.0 | -5 | i | -4 | -7 | -0.9
COc1ccc(S(=O)(=O)Nc2ccc3c(c2)CC(=O)N([C@H](C)CO)C[C@H](C)[C@H](CN(C)Cc2ccc(Oc4ccccc4)cc2)O3)cc1 | · | · | 1.9 | · | · | i | -3 | -4 | -3.7
COc1ccc(N(CC(=O)Nc2cccc(SC)c2)S(C)(=O)=O)cc1 | 0.72 | -1% | · | -1.4 | -4 | · | · | · | ·
COc1ccc(-c2nc(-c3ccccc3)[nH]c(=O)c2C#N)cc1 | 0.76 | 20% | · | 2.2 | -2 | · | · | · | ·
COc1ccccc1CC(=O)NCCc1ccc(S(N)(=O)=O)cc1 | 0.67 | 28% | · | -1.8 | -9 | · | · | · | ·
